PKD1 inh: inhibitors of human PKD1 kinase, biochemical, fluorescence polarization. PKD1 kinase fluorescence polarization assay. inhibition, %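 (about 10 µM by stock and volumes)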. actives 0.056% (n = 200,000);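 active = inhibition of 50% or more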;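 note: controls were vehicle for no effect and a reference inhibitor for full effect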
Insulin prom inh: inhibitors of insulin promoter-driven GFP, primary screen, imaging, TRM-6 cells (human fetal islet line), eGFP reporter, cell count; inhibition, % at 2 µM; actives 0.9% (n = 130,000); reporter expression induced with tamoxifen; AID 1273, 2008;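 active = inhibition above the mean plus 3 SD, with well images judged a real hit on visual review, cut at about 60% in these data, passing the limit was not always enough; inconclusive = inhibition over the cutoff but images rejected on review; inactive = inhibition not above the cutoff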
GALR2 ag: GALR2 receptor agonists, primary screen, cell-based; GALR2-expressing cells, agonist activation read-out; activation, %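 (tested at 5 µM)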; actives 0.48% (n = 140,000);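 active = above mean plus 3 SD of all compounds, about 5% in these data, not always enough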;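 note: 0% = vehicle buffer wells and 100% = reference agonist at full effect; tested in CHO reporter cells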
Target sequence (O43603 whole entry, looked up): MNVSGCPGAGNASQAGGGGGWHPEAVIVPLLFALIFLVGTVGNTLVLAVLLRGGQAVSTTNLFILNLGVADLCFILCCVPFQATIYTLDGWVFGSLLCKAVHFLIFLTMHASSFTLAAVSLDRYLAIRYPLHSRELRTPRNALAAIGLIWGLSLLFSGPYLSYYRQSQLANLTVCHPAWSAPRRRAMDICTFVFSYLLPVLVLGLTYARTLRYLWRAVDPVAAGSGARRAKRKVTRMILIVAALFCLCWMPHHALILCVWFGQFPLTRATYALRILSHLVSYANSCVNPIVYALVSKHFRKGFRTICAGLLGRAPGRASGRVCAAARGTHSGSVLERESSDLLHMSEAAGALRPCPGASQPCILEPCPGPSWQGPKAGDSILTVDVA
RGS16-Gao HTS: modulators of RGS16 binding to Galphao, primary screen, biochemical, human proteins, multiplexed bead flow cytometry. binding response (% of control), % at 10 µM. bead-based flow cytometry RGS16-Galphao binding, fluorescence; actives lie on both sides. Regulator of G-protein signaling 16 (Homo sapiens) + Guanine nucleotide-binding protein …. actives 0.38% (n = 220,000);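 active = below 25% or above 175%, edge rows of some plates excepted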;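 note: Galphao activated by GDP with aluminum fluoride before binding; 100% = wells without compound and 0% = beads without RGS; some results beyond the cut were filed as inactive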
Target sequence (O15492 whole entry, looked up): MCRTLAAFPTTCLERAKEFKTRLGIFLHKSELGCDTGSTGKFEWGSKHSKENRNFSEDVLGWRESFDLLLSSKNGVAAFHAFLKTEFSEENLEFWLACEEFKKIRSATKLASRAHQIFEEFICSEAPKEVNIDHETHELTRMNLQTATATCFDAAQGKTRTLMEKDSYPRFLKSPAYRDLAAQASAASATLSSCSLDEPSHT
Target sequence (P09471 whole entry, looked up): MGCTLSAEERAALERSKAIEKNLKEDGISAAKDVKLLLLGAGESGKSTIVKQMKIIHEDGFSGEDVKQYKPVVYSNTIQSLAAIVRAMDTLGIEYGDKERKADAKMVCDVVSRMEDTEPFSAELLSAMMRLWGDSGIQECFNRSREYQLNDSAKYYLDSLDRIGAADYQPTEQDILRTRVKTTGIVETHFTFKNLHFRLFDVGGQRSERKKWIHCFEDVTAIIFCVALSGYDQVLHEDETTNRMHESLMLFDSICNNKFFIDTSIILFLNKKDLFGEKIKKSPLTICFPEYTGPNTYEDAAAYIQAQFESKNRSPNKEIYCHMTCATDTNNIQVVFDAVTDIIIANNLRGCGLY
HSV replic up: enhancers of HSV replication in host cells, fold increase, host cell viability | actives 0.005% (n = 220,000) | HSV replication augmentation in cells | maximum fold increase;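 active = peak rise of 1.5-fold or more in the series; inconclusive = self-fluorescent or not available for retest; tested in PC3 cells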;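 note: first round at 10 µM; read as green reporter fluorescence; hits show the peak of a series up to 25 µM; 1 = signal of infected wells without compound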
Insulin prom inh cell count: further read-out of Insulin prom inh, marked with its call; normalized cell count, %; measured here: cell count, toxicity; reference of the scale not given here;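 cells exposed to compound for 48 h; stained nuclei by imaging scaled within each plate; lower means fewer cells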
HSV replic up primary fold: recorded beside HSV replic up, whose call it bears; fold increase; compound at 10 µM; measured here: primary screen fold increase 10 uM; tested in PC3 cells;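 GFP signal in the first replicate; 1 = infected wells without compound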
* marks the source's active call; other numbers are inactive results; i = inactive; ? = inconclusive; . = not tested or not shown. Rows were taken by chance; 1.3% or so of the library scored in one or more.

SMILES	PKD1 inh	Insulin prom inh	Insulin prom inh cell count	GALR2 ag	RGS16-Gao HTS	HSV replic up	HSV replic up primary fold
NC(=S)N/N=C/c1coc2ccc(O)cc2c1=O	.	.	.	.	102	i	0.89
CC1=CC(=O)[C@H]2C(C)(C)CCC[C@]2(C)[C@@]1(O)CO	17	.	.	.	98	i	0.73
N/C(Cc1ccc([N+](=O)[O-])cc1)=N\OC(=O)Cc1ccccc1	2	-23	85	-1.1	98	i	0.95
COC(=O)C1=NN[C@H](C(=O)OC(C)(C)C)[C@H]1c1ccccc1	-4	-29	105	-2.2	97	i	0.91
O=C(Nc1ccc2oc(-c3ccccc3)nc2c1)c1cc(-n2cnnc2)ccc1Cl	3	35	90	.	100	i	0.91
S=c1[nH]nc(-c2ccco2)n1/N=C/c1ccc(Cl)cc1	2	.	.	-0.1	100	i	0.99
CCN(C(=O)CSc1nnc(Nc2ccccc2)s1)C1CCS(=O)(=O)C1 (configuration not stated)	-4	-6	98	.	110	i	0.99
O=C(Nc1ccccc1)N(C1=NCCC1)c1ccc(OC(F)F)cc1	-12	-12	100	-1.3	94	i	0.99
COc1cccc(/C=N/NC(=O)CN(C2=NS(=O)(=O)c3ccccc32)c2ccccc2)c1	-9	45	47	0.1	114	i	0.95
O=C(c1c(F)cccc1F)N1CCCC1	-4	.	.	.	90	i	1.1
CCC(c1nnnn1CCOC)N(Cc1cc2c(C)cc(C)cc2[nH]c1=O)CC1CCCO1 (configuration not stated)	-7	20	203	-3.4	119	i	0.81
O=S(=O)(Nc1nc2ccccc2nc1NCc1ccco1)c1cccs1	-1	13	142	-0.4	100	i	0.99
Cc1c(-c2ccccc2)sc(Br)c1C(=O)N1CCOCC1	8	-69	84	-2.4	102	i	0.93
COc1ccc(C(CC(=O)O)NC(=O)COc2cc(C)ccc2C)cc1OC (configuration not stated)	10	25	109	.	100	i	0.99
CCCOC(=O)c1ccc(NC(=O)C2CCCO2)cc1 (configuration not stated)	-4	21	100	-3.0	101	i	1
CCOC(=O)c1ccc(-n2[nH]c(-c3ccccc3)cc2=O)cc1	-5	57	116	-1.3	101	i	0.95
O=C(Nc1cccc(Cl)c1Cl)c1cc(S(=O)(=O)NCCc2ccccc2)ccc1F	-10	43	115	-1.2	101	i	0.73
Cc1ccccc1-c1nnc(SCCOc2ccc3c(C)cc(=O)oc3c2)o1	-1	34	111	-1.2	103	i	0.8
Cc1cc(C)nc(-n2nc(C)cc2Nc2ccccc2)n1	0	51	52	-1.3	89	i	0.87
O=C(COC(=O)Cn1cnc2ccccc21)Nc1cccc(S(=O)(=O)N2CCOCC2)c1	4	26	128	.	101	i	1.1
CC(=O)c1ccc(-c2cccs2)s1	0	.	.	.	99	i	1
O=C(Oc1ccccc1)N1CCN(c2ccc(F)cc2)CC1	4	42	123	-1.3	104	i	1
CC(C)CSc1nc2ccccc2[nH]1	7	.	.	.	97	i	0.93
Cc1cc(N(C)C)ccc1[N+](=O)[O-]	3	8	102	0.1	103	i	1
S=C(NCCCc1ccccc1)Nc1ccccc1Cl	-10	39	86	-0.8	80	i	1
CCOc1ccc(-n2c(SCc3nc(-c4ccc(C)cc4)no3)nnc2-c2ccncc2)cc1	-13	33	183	-0.4	96	i	1
COc1ccc(OC)c(NC(=O)COc2ccc(S(=O)(=O)NC(C)C)cc2)c1	-10	31	129	-0.5	101	i	0.83
O=C1CC(=O)N2N=C(c3ccc([N+](=O)[O-])cc3)SC2=N1	-5	-46	35	-1.3	87	i	1.1
COc1cccc(N2C(C(C)=O)=NN(c3ccccc3)C2c2ccc(N3CCOCC3)cc2)c1 (configuration not stated)	-14	.	.	-0.9	110	i	0.8
O=C(NC(C(=O)N/N=C/c1cccc2ccccc12)c1n[nH]c(=O)c2ccccc12)c1ccccc1 (configuration not stated)	1	5	111	0.0	98	i	0.82
COc1ccccc1N1CCN(C(=O)Nc2ccc([N+](=O)[O-])cc2)CC1	9	-117	110	-0.5	99	.	.
Cc1cc(C)c2nc(NNC(=O)c3ccc(S(=O)(=O)N4CCc5ccccc5C4)cc3)sc2c1	-4	-256	56	1.1	64	i	0.76
CCOC(=O)c1cnc(SC)nc1N1CCCC1	-4	.	.	.	99	i	0.99
CC(C(=O)Nc1ccc2c(c1)OCCO2)N1CCN(C(=O)c2ccco2)CC1 (configuration not stated)	2	25	90	-1.0	114	i	0.86
COc1cc(/C=N/NC(=O)c2ccncc2)ccc1Oc1ccc([N+](=O)[O-])cn1	-2	.	.	.	91	i	0.96
Cc1ccccc1S(=O)(=O)Nc1nc2ccccc2nc1N1CCOCC1	17	.	.	-1.9	102	i	1
C=C(C)C1CC=C(C)/C(=N/NC(=O)CNc2ccc(OCC)cc2)C1 (configuration not stated)	8	.	.	-0.7	97	i	1.2
COC(=O)c1ccc(NC(=S)NC2CCCCC2C)cc1 (configuration not stated)	0	0	116	-0.7	99	i	0.84
O=C(Nc1cccnc1)c1ccc2c(c1)OCO2	-11	11	112	-2.0	99	i	0.93
O=C(OCc1nc2scc(-c3ccccc3)c2c(=O)[nH]1)c1cc([N+](=O)[O-])ccc1Cl	-6	-10	108	-0.3	101	i	0.95
Clc1ccc(COc2ccccn2)cc1Cl	5	21	102	-1.6	102	i	1.2
CC(=O)N(C)c1ccc(NC(=O)C(F)(F)F)cc1	-7	46	148	-1.1	95	i	0.99
Cc1ccc(NCc2nnc(SCCN3CCCCC3)n2CC2CCCO2)cc1Cl (configuration not stated)	-7	29	191	-1.4	113	i	0.73
CN(C)c1ccc([N+](=O)[O-])cc1C(=O)O	-1	-41	118	-0.1	97	i	0.94
COc1ccc2c(CCNC(=O)c3ccco3)c[nH]c2c1	4	.	.	-1.4	106	.	.
CC(C)(C)c1ccc(OCC(=O)N2CCCCCC2)c(Br)c1	-14	.	.	.	102	i	1
Cc1ccc(N(CC(=O)N2CC(=O)Nc3ccccc32)S(=O)(=O)c2ccc3c(c2)OCCO3)cc1	-1	48	76	-0.7	106	i	0.94
CCOC(=O)/C(C#N)=C\C=C1C=CN(C)C=C1	-5	-111	104	0.1	95	?	.
Cn1nc(C(C)(C)C)c([N+](=O)[O-])c1C(=O)NCCO	-11	-29	144	-2.3	113	i	1
Cc1oc(-c2ccccc2)cc1C(=O)Nc1ccc(N(C)C)cc1	-9	5	135	-4.8	92	i	0.94
Cc1[nH]n(-c2ccccc2)c(=O)c1/C=N/O	-7	29	137	-2.3	100	i	1.2
COc1cc(/C=C(\C#N)c2nc3ccc(C)cc3[nH]2)cc([N+](=O)[O-])c1O	3	.	.	.	109	i	0.92
Cc1occc1C(=O)NCc1cccs1	-2	-8	120	-0.7	97	i	0.95
COc1ccc(C2=CC3=C(Br)C(=O)C(C)(OC(=O)c4ccc(Cl)nc4)C(=O)C3=CO2)cc1 (configuration not stated)	.	.	.	.	101	i	1.3
COCc1cc(C)n(CC(=O)Nc2cccc(C)c2)c(=O)c1C#N	2	.	.	.	103	i	0.97
COC(=O)c1ccc(COC(=O)c2cnccn2)cc1	-7	.	.	.	96	i	1
Cc1ccc(S(=O)(=O)N2CCCCC2)cc1NC(=O)C1CC(=O)N(Cc2ccccc2)C1 (configuration not stated)	-9	-3	169	-1.2	106	i	0.9
CSc1nc(C)cc(OCCNS(=O)(=O)c2ccc(C)cc2)n1	-12	-287	99	-0.5	.	i	1.1
O=C(CN1C(=O)C2C3C=CC(C4CC34)C2C1=O)Oc1ccccc1 (configuration not stated)	-4	3	102	.	103	i	1.2
COc1ccc(NC(=O)CSc2ccccn2)cc1	-7	-33	149	-0.2	32	i	1

Sorted by molar mass (rising): 23 of the compounds above.
SMILES	PKD1 inh	Insulin prom inh	Insulin prom inh cell count	GALR2 ag	RGS16-Gao HTS	HSV replic up	HSV replic up primary fold
CN(C)c1ccc([N+](=O)[O-])cc1C(=O)O	-1	-41	118	-0.1	97	i	0.94
Cc1occc1C(=O)NCc1cccs1	-2	-8	120	-0.7	97	i	0.95
CCOC(=O)/C(C#N)=C\C=C1C=CN(C)C=C1	-5	-111	104	0.1	95	?	.
O=C(Nc1cccnc1)c1ccc2c(c1)OCO2	-11	11	112	-2.0	99	i	0.93
Clc1ccc(COc2ccccn2)cc1Cl	5	21	102	-1.6	102	i	1.2
Cn1nc(C(C)(C)C)c([N+](=O)[O-])c1C(=O)NCCO	-11	-29	144	-2.3	113	i	1
COC(=O)c1ccc(COC(=O)c2cnccn2)cc1	-7	.	.	.	96	i	1
COc1ccc(NC(=O)CSc2ccccn2)cc1	-7	-33	149	-0.2	32	i	1
COc1ccc2c(CCNC(=O)c3ccco3)c[nH]c2c1	4	.	.	-1.4	106	.	.
COC(=O)c1ccc(NC(=S)NC2CCCCC2C)cc1 (configuration not stated)	0	0	116	-0.7	99	i	0.84
Cc1oc(-c2ccccc2)cc1C(=O)Nc1ccc(N(C)C)cc1	-9	5	135	-4.8	92	i	0.94
O=C(CN1C(=O)C2C3C=CC(C4CC34)C2C1=O)Oc1ccccc1 (configuration not stated)	-4	3	102	.	103	i	1.2
COCc1cc(C)n(CC(=O)Nc2cccc(C)c2)c(=O)c1C#N	2	.	.	.	103	i	0.97
C=C(C)C1CC=C(C)/C(=N/NC(=O)CNc2ccc(OCC)cc2)C1 (configuration not stated)	8	.	.	-0.7	97	i	1.2
COc1cc(/C=C(\C#N)c2nc3ccc(C)cc3[nH]2)cc([N+](=O)[O-])c1O	3	.	.	.	109	i	0.92
CSc1nc(C)cc(OCCNS(=O)(=O)c2ccc(C)cc2)n1	-12	-287	99	-0.5	.	i	1.1
CC(C)(C)c1ccc(OCC(=O)N2CCCCCC2)c(Br)c1	-14	.	.	.	102	i	1
Cc1ccccc1S(=O)(=O)Nc1nc2ccccc2nc1N1CCOCC1	17	.	.	-1.9	102	i	1
COc1cc(/C=N/NC(=O)c2ccncc2)ccc1Oc1ccc([N+](=O)[O-])cn1	-2	.	.	.	91	i	0.96
O=C(OCc1nc2scc(-c3ccccc3)c2c(=O)[nH]1)c1cc([N+](=O)[O-])ccc1Cl	-6	-10	108	-0.3	101	i	0.95
Cc1ccc(NCc2nnc(SCCN3CCCCC3)n2CC2CCCO2)cc1Cl (configuration not stated)	-7	29	191	-1.4	113	i	0.73
Cc1ccc(N(CC(=O)N2CC(=O)Nc3ccccc32)S(=O)(=O)c2ccc3c(c2)OCCO3)cc1	-1	48	76	-0.7	106	i	0.94
COc1ccc(C2=CC3=C(Br)C(=O)C(C)(OC(=O)c4ccc(Cl)nc4)C(=O)C3=CO2)cc1 (configuration not stated)	.	.	.	.	101	i	1.3

The results go on.
SMILES	PKD1 inh	Insulin prom inh	Insulin prom inh cell count	GALR2 ag	RGS16-Gao HTS	HSV replic up	HSV replic up primary fold
COc1ccc2c(c1)CCc1c(C(=O)N3CCc4ccccc4C3)noc1-2	-5	.	.	-1.2	86	i	0.83
Cc1nnc(SCC(=O)n2c3c(c4ccccc42)CCCC3)s1	1	70	120	-0.2	106	i	0.95
c1ccc(-c2ccc(C3=Nn4c(Cn5nnc6ccccc65)nnc4SC3)cc2)cc1	3	.	.	0.5	74	i	0.8
CCCNC(=O)c1cc(-c2ccc(Br)cc2)on1	-8	.	.	-0.6	93	.	.
COc1ccc(NC(=O)c2sccc2C)c([N+](=O)[O-])c1	3	-31	50	-2.7	103	i	0.95
CCC(O)(CC)C(=O)N/N=C/c1cc(Br)cc(Br)c1O	.	.	.	.	93	i	1.6
CCOc1ccc(-c2nnn(CC(=O)Nc3ccccc3OC)n2)cc1OCC	13	.	.	-3.3	93	i	0.88
O=C(N/C(=C\c1cccc([N+](=O)[O-])c1)C(=O)N1CCCCC1)c1cccs1	-10	41	76	-2.2	98	i	0.95
CN(CC(=O)Nc1ccc(N2CCOCC2)cc1)CC(=O)Nc1ccc([N+](=O)[O-])cc1Br	6	.	.	.	100	i	0.98
CN(C)c1ccc(-c2nnc(-c3cccs3)o2)cc1	-2	54	131	.	103	i	0.86
Cc1nn(-c2ccccc2)c(C)c1/C=N/O	1	32	219	-0.2	106	i	0.92
O=C1CC(=C2c3ccccc3-c3ccccc32)C(=O)N1CCN1CCN(c2cccc(Cl)c2)CC1	-13	-9	74	-2.1	.	i	0.87

Bioassay records deposited in PubChem BioAssay by several laboratories.
